# High-throughput results: PubChem, Johns Hopkins Ion Channel Center
# KCNQ2 enhance: potentiators of rat KCNQ2 potassium channel | CHO-K1 KCNQ2, FluxOR thallium flux fluorescence; stronger effect = higher value | Potassium voltage-gated channel subfamily KQT member 2 (Rattus norvegicus), O88943 | B-score at 10 µM | actives 0.54% (n = 310,000);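 active = fluorescence ratio B-score at least 3 SD of library B-scores, with initial fluorescence B-score within 3 SD, cut at about 5.3 in these data; same plate scores as AID 2156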;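 also: B-score of peak minus minimum over baseline fluorescence ratio after K+ and Tl+ stimulus; positive B-score means potentiation of KCNQ2 with more thallium influx and brighter signal; only the inactives scoring about 0 or higher are listed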
# Target sequence (O88943 whole entry, looked up): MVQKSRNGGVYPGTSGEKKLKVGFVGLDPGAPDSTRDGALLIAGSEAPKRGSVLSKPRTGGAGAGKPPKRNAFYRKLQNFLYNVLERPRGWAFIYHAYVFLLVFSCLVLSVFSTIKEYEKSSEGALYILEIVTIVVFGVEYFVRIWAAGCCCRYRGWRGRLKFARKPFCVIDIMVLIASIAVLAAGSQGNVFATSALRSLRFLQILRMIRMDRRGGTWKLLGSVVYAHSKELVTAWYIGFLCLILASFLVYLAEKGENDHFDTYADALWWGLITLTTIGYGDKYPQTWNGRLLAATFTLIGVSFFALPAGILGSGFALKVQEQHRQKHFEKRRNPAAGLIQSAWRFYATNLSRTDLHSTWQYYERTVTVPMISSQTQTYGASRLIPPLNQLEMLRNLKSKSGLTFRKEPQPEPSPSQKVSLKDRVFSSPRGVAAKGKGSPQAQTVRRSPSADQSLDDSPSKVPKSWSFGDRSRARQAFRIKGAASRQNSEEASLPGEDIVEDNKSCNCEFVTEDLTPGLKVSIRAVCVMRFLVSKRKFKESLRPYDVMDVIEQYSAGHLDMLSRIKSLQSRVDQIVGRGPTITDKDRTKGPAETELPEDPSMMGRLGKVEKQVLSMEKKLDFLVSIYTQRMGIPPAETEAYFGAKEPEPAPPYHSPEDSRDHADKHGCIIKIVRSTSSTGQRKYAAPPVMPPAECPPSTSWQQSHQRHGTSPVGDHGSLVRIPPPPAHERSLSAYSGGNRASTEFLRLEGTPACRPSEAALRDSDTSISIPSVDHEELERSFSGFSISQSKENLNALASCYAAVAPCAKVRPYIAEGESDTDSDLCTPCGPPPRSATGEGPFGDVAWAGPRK
# KCNQ2 enhance baseline: also measured in KCNQ2 enhance; calls as there; B-score; compound at 10 µM; measured here: initial fluorescence intensity artifact check;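 brightness before thallium and not channel activity; 0 = typical well and far values either way flag optical interference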
# * marks the source's active call; other numbers are inactive results. Only part of the results is shown. The share of hits here may be higher or lower than overall.
KCNQ2 enhance,KCNQ2 enhance baseline,SMILES
0.03,-0.79,CCc1sc(C(=O)N2CCCN(C)CC2)cc1Br
0.12,-0.12,O=C(Nc1c2c(nn1-c1ccccc1)CSC2)c1ccc(N2C(=O)CCC2=O)cc1
0.5,1.5,COC(=O)c1sccc1NC(=O)Nc1cc(C)cc(C)c1
0.29,-0.18,COCCNC(=O)CCn1nc(-c2ccc(Cl)cc2)c2ccccc2c1=O
0.19,0.6,Cc1cc(C(=O)CSc2ncn[nH]2)c(C)n1-c1cccc(S(=O)(=O)N2CCOCC2)c1
0.02,-1.9,CC(C)CNC(=O)COc1cccc(C(=O)NCc2ccccc2)c1
2.5,-0.44,O=C(Nc1cccnc1)Nc1cccc([N+](=O)[O-])c1
0.48,-1.3,C[n+]1cccc(C(=O)Nc2ccccc2)c1
0.69,-0.79,CCS(=O)(=O)c1ccc(N)cc1
1,0.32,CCOc1cc(C2C(C(=O)OC)=C(C)N=C3SCCC(=O)N32)ccc1OC(C)=O (centres undefined)
1.3,0.92,C/C(=N\NC(=O)Cc1ccc(O)cc1)c1cccnc1
0.13,1.4,CCC(C)(C)NC(=O)C(NS(=O)(=O)c1cccs1)c1ccccc1 (centres undefined)
0.93,-0.04,CCOC(=O)N1CCN(C(=O)COc2ccc(Br)cc2Cl)CC1
0.03,0.74,COc1ccc(-n2nc(C(=O)Nc3cc(OC)c(OC)c(OC)c3)c3ccccc3c2=O)c(OC)c1
1.1,1,C=CCc1c(C)nn(CC(=O)O)c1-c1ccccc1
0.19,-1.6,O=c1[nH]ncc2c3ccccc3n(Cc3ccccc3)c12
0.34,4.3,O=C(Cc1c[nH]c2ccccc12)NC1(C(=O)NC2CCCC2)CCCCC1
1.1,-0.87,CN(/C=C/C(=O)C(F)(F)F)Cc1ccccc1
0.21,3.9,O=c1ccc(-c2ccc(S(=O)(=O)N3CCN(c4cccc(Cl)c4)CC3)o2)n[nH]1
0.88,0.3,COc1ccc(S(=O)(=O)NCCc2nnc3ccc(SCC(=O)Nc4nc(C)cs4)nn23)cc1
0.66,0.53,CC(C)CC(OC(=O)c1nsc(Cl)c1Cl)C(=O)NCC1CCCO1 (centres undefined)
0.11,-0.49,Cc1ccc(S(=O)(=O)NCC(=O)N2CCCC2)cc1
1.2,-0.87,CCOC(=O)N1CCC(NC(=O)c2cc(S(=O)(=O)N3CCC4(CC3)OCCO4)ccc2F)CC1
2.8,0,CCOC(=O)c1sc(NC(=O)c2ccco2)nc1-c1ccccc1
0.76,-0.78,O=C1[C@@H]2[C@H]3CC[C@H](C3)[C@@H]2C(=O)N1O
1.1,-0.38,CCOc1ccc(C(=O)Nc2cccc(C(=O)O)c2)cc1Cl
0.75,-1.8,Cc1ccc2sc(NC(=O)c3cccc(N4C(=O)CCC4=O)c3)nc2c1C
0.24,0.47,Cc1ccc(C)c(NC(=O)NNC(=O)c2ccc3ccccc3c2O)c1
0.14,-0.42,O=C(CO/N=C/c1ccccc1OC(F)F)NCc1cccs1
0.69,-0.62,CC(C)CNC(=O)c1cnn2c(C(F)(F)F)cc(C(F)(F)F)nc12

# Brought forward from above: 2 compounds; new compounds follow.
KCNQ2 enhance,KCNQ2 enhance baseline,SMILES
0.14,-0.42,O=C(CO/N=C/c1ccccc1OC(F)F)NCc1cccs1
0.69,-0.62,CC(C)CNC(=O)c1cnn2c(C(F)(F)F)cc(C(F)(F)F)nc12
0.09,1.1,Cc1nn(C(=O)CNS(=O)(=O)c2ccccc2)c(C)c1Sc1ccc(Cl)cc1
0.44,2.5,COc1ccc(CC(=O)OCC(=O)NCc2ccco2)cc1
0.57,-2,COc1ccc(-c2noc(CCC(=O)NCCc3ccccc3)n2)cc1OC
0.96,-0.21,CC(C)[C@H](NC(=O)c1c(F)cccc1F)C(=O)OCC(=O)NC(=O)NC1CCCC1
0.02,0.46,COC(=O)CC1C(=O)NCCN1C(=O)c1ccccc1 (centres undefined)
1.2,1.4,COc1cc2c(cc1OC)CN(C(=S)Nc1c(C)cccc1C)CC2
0.46,-2.4,CC(C)c1ccc(S(=O)(=O)c2nnn3c2nc(N2CCCCC2)c2ccccc23)cc1
0.44,1.1,CCCCC(CC)C1OCC(CN2CCCCC2)O1 (centres undefined)
0.78,-2.6,Cc1c(NC(=O)COC(=O)C23CC4CC(CC(O)(C4)C2)C3)c(=O)n(-c2ccccc2)n1C
1,-0.03,Cc1c(Cl)cccc1NC(=O)COc1ccc(S(=O)(=O)N2CCOCC2)cc1
0.47,0.25,COc1ccc(N2CCN(Cc3nc4ccccc4c(=O)[nH]3)CC2)cc1
0.67,0.17,CC(C)CNC(=S)N(CCO)Cc1cc2cc3c(cc2[nH]c1=O)OCO3
1.2,0.13,Cc1ccc2oc(/N=C(\N)NC(=O)C3CC3)nc2c1
0.34,0.19,O=C(N[C@H](CO)[C@H](O)c1ccc([N+](=O)[O-])cc1)C(Cl)Cl
0.69,-0.57,CC(OC(=O)c1ccncc1)C(=O)Nc1ccc([N+](=O)[O-])cc1Cl (centres undefined)
0.32,0.72,O=C(NCCN1CCOCC1)NC1(C(F)(F)F)Oc2ccccc2O1
0.35,0.9,COc1cc(NS(C)(=O)=O)c(OC)cc1NC(=O)c1ccccc1
1,0.77,CCN(CC)CCn1c2c(c(SCC(=O)Nc3cccc4ccccc34)nc1=O)CCCC2
0.42,-0.95,c1ccc(-c2nc(NCCCN3CCOCC3)c3ccccc3n2)cc1
0.34,-0.66,O=C(Cn1nnc(-c2ccc(NC(=O)c3ccccc3F)cc2)n1)NCc1ccc(F)cc1
0.21,-1.4,Clc1cc(Cl)cc(Nc2ncnc(-n3cccc3)n2)c1
0.65,-0.8,Cc1cc(C)c(NC(=O)NC(=O)C(Cl)(Cl)Cl)c(C)c1
0.57,-0.88,Cc1ccccc1NC(=O)Cn1nnc2sc3c(c2c1=O)CC(C)(C)OC3
0.69,0.02,COc1ccc(N(C(=O)Cn2nnc(-c3ccc(F)cc3)n2)C(C)C(=O)NC2CCCC2)cc1 (centres undefined)
0.18,0.34,C=C(C)c1cccc(C(C)(C)NC(=O)N2CCN(CC(N)=O)CC2)c1
0.68,0.6,COc1ccc(/C=N/NC(=O)CN2CCSCC2)c(OC)c1
0.56,-2.6,COc1ccc(/C=N/NC(=O)Cn2nnc3ccccc32)cc1OC
1.1,-1.1,COc1ccc(OCC(O)CN2CCN(CC(O)COc3ccc(OC)cc3)CC2)cc1 (centres undefined)
0.11,1.2,CCn1c2ccccc2c2nnc(SCC(=O)Nc3ccc4c(c3)OCO4)nc21
1.7,-1.2,CC(=O)Nc1ccc(Nc2cc(C)nc3ccccc23)cc1

# More entries
KCNQ2 enhance,KCNQ2 enhance baseline,SMILES
0.34,-1.2,CC(NC(=S)NCCN1CCOCC1)C12CC3CC(CC(C3)C1)C2 (centres undefined)
2,0.21,Cc1ccc(OCC(=O)N/N=C/c2ccncc2)cc1C
1.4,-0.47,CCN1C2=NCCCN2c2ccccc21
0.47,0.28,Cc1ccc(-c2ccc(=O)n(CC(=O)NCCN(C)C)n2)cc1
0.95,2.1,O=C(NCCCNC(=O)c1ccccn1)c1ccc(F)cc1
0.19,1.4,CCN1C/C(=N\S(=O)(=O)/N=C2\CN(CC)C(=O)N2CC)N(CC)C1=O
1.7,-0.13,O=C(O)c1cccc(CSc2nnc(-c3ccc(Cl)cc3)o2)c1
0.36,-2.4,CCCCOC(=O)Nc1ccc(C(=O)OC)cc1
2.4,-0.17,COc1cc(C(=O)NCc2ccc3c(c2)OCO3)ccc1OCc1c(C)noc1C
0.61,2.8,CCN(CCCNC(=O)CC1Oc2ccc(C)cc2NC1=O)Cc1ccccc1 (centres undefined)
0.05,-0.31,CCOC(=O)c1ccc(CNCc2ccc(C)cc2)cc1
0.88,0.61,Cn1cccc1/C=N/N1CCN(Cc2ccccc2)CC1
1,0.89,COC(=O)c1sccc1NC(=O)c1cc(-c2ccc(C)cc2)nc2ccccc12
0.01,0.8,Cc1cc(CN2CCCC(CNC(=O)c3ccc(F)cc3)C2)cc(C)c1O (centres undefined)
1.5,-0.19,COC(=O)Cn1c(C)nc2c(sc3nc(C)cc(C)c32)c1=O
0.69,-0.01,COc1ccc2cc3c(N)nn(C(=O)Cc4ccccc4OC)c3nc2c1
0.91,0.04,CC(=O)CC(=O)Nc1ccc(Cl)cn1
0.35,-1.7,CN(CC(=O)N1CCC(C(N)=O)CC1)S(=O)(=O)c1ccc2ccccc2c1
0.92,-0.11,O=C(CSc1ncn[nH]1)c1ccco1
1.1,-0.73,CCOC(=O)C(=O)Nc1cc(Cl)ccc1C
0.21,-0.62,O=C(Nc1ccccc1Cl)c1cc(=O)c2ccccc2o1
1.3,-1.5,C/C(=N\NC(=O)c1cccnc1)c1ccc(-n2ccnc2)cc1
0.01,0.06,N#C/C(=C\c1ccc(-c2ccc([N+](=O)[O-])cc2Br)o1)C(=O)N1CCN(c2ccccc2)CC1
0.11,1.3,CC/C(O)=C(\C#N)c1nnc2n1CCCCC2
1.8,0.33,O=[N+]([O-])c1cccc(-c2nnnn2-c2cccc(F)c2)c1
0.38,-1.2,CCc1nnc(NC(=O)C2Cc3ccccc3CN2S(=O)(=O)c2ccc(C)cc2)s1 (centres undefined)
0.42,-0.04,N#Cc1cccnc1Oc1ccccc1
0.43,0.56,CCc1cc(CNC(=O)CCc2nnc(CCCc3ccccc3)o2)on1
0.07,-0.56,O=C(Cc1ccc(Cl)cc1Cl)Nc1ccncc1Cl
0.18,2.4,Cc1ccc2c(c1)N(CCC(=O)NCCCN1CCCC1)C(=O)C(C)O2 (centres undefined)

# 3 compounds out of the list above, sorted by the number in KCNQ2 enhance, highest first:
KCNQ2 enhance,KCNQ2 enhance baseline,SMILES
1.5,-0.19,COC(=O)Cn1c(C)nc2c(sc3nc(C)cc(C)c32)c1=O
0.38,-1.2,CCc1nnc(NC(=O)C2Cc3ccccc3CN2S(=O)(=O)c2ccc(C)cc2)s1 (centres undefined)
0.21,-0.62,O=C(Nc1ccccc1Cl)c1cc(=O)c2ccccc2o1

# Following part:
KCNQ2 enhance,KCNQ2 enhance baseline,SMILES
0.95,0.1,O=C(NCCCCCCNC(=O)NCc1ccco1)NCc1ccco1
0.28,0.6,COc1ccc(/C(O)=C2\C(=O)C(=O)N(CCN(C)C)C2c2cccc(OC)c2OC)cc1Cl (centres undefined)
0.29,0.57,COc1cc(NS(=O)(=O)c2c(C)[nH]c(C)c2C(=O)N2CCCCC2)cc(OC)c1OC
0.98,0.77,O=C(CCCC(=O)OCC(=O)NC1CCCC1)Nc1ccccn1
0.63,-1.9,Cc1nc2ccccn2c1C(=O)NC1CCCc2ccccc21 (centres undefined)
1,-0.27,CCC(C(=O)Nc1cccc(OC)c1)n1nc(C)c2c(C)n(-c3ccccc3)nc2c1=O (centres undefined)
2.1,-0.86,O=C1CSC(c2ccccc2F)N1 (centres undefined)
0.45,2,Cc1cc(C)n2nc(SCc3ccccc3C(=O)O)nc2n1
0.01,-0.14,Cc1ccc(C(=O)N2CCN(c3cc(=O)[nH]nc3-c3ccccc3)CC2)cc1
0.58,-0.5,O=C(NCC(=O)N(c1cccnc1)C(C(=O)NC1CCCC1)c1ccccc1)c1ccco1 (centres undefined)
0.08,0,CCOc1ccc(C(=O)N2CCN(c3ccccc3)CC2)cc1OCC
1.4,-0.02,CC(C)CN(C(=O)CCc1ccccc1)c1c(N)n(CC(C)C)c(=O)[nH]c1=O
0.79,-1.5,CC(NC(=O)C12CC3CC(C)(CC(C)(C3)C1)C2)c1ccncc1 (centres undefined)
0.17,0.26,O=C(O)c1ccc(N=NN2CCCCCC2)cc1
0.32,0.1,CCOc1ccccc1NC(=O)COC(=O)CCOc1cc(C)ccc1C
0.67,-0.54,O=C(NCC1CC1)c1cc([N+](=O)[O-])cc([N+](=O)[O-])c1
0.33,-0.27,CC1(C)CC2=C(CO1)C(=S)NC(c1ccccc1)N2CC1CCCO1 (centres undefined)
0.69,-0.24,COc1ccc(C2C3=C(CC(C)(C)CC3=O)Oc3ncn(CCO)c(=N)c32)cc1OC (centres undefined)
0.41,-0.38,Cc1cccc(NC(=S)NCc2ccc3[nH]c4c(c3c2)CCCC4)c1
1.5,0,COc1ccc(OCC(=O)NNC(=O)c2cccc(C)c2)cc1
0.71,0.35,O=C1c2ccccc2-c2nc3ccccc3nc21
3.2,-1.3,COC(=O)CSc1nnc(COc2ccc3ccccc3c2)o1
0.87,1.4,CCCn1c(NCc2ccco2)nc2ccccc21
1.7,-0.06,COc1ccc(Cl)cc1NC(=S)N1CC(C)OC(C)C1 (centres undefined)
0.12,-1.3,O=C(COC(=O)CNC(=O)c1cccc([N+](=O)[O-])c1)Nc1nc2ccccc2s1
0.11,-0.26,CCC1COCCS(=O)(=O)N1Cc1ccc(Cl)cc1 (centres undefined)
0.5,0.7,Cc1cccc(Cl)c1OCCCN1CCOCC1
1.2,-1.7,C=CCn1c(-c2csc3ccccc23)n[nH]c1=S
0.66,-1.1,COC(=O)c1ccccc1NC(=O)C1CCC(=O)N1S(=O)(=O)c1ccc(C)cc1 (centres undefined)
0.96,-0.18,COc1ccccc1C(=O)NC(=O)CSc1nnc(SC)s1

# 7 compounds picked at random from those above, as already listed:
KCNQ2 enhance,KCNQ2 enhance baseline,SMILES
0.12,-1.3,O=C(COC(=O)CNC(=O)c1cccc([N+](=O)[O-])c1)Nc1nc2ccccc2s1
1.7,-0.06,COc1ccc(Cl)cc1NC(=S)N1CC(C)OC(C)C1 (centres undefined)
0.32,0.1,CCOc1ccccc1NC(=O)COC(=O)CCOc1cc(C)ccc1C
0.41,-0.38,Cc1cccc(NC(=S)NCc2ccc3[nH]c4c(c3c2)CCCC4)c1
0.98,0.77,O=C(CCCC(=O)OCC(=O)NC1CCCC1)Nc1ccccn1
1.4,-0.02,CC(C)CN(C(=O)CCc1ccccc1)c1c(N)n(CC(C)C)c(=O)[nH]c1=O
0.79,-1.5,CC(NC(=O)C12CC3CC(C)(CC(C)(C3)C1)C2)c1ccncc1 (centres undefined)
